# Screening data (PubChem BioAssay)
# Marburg entry inh: inhibitors of Marburg virus binding or cell entry; Potency, µM (titrated, usually from 37.8 µM), inactives show at the highest dose activity change, negative = inhibition, hits mostly inhibitors; Marburg virus pseudotyped entry inhibition, cell reporter; control for the full effect not named in the record; about a third of the inactives were read at about 46 µM; AID 540276; 300,000 tested, 1.8% active; active = well fitted inhibition curve with a large enough effect; inconclusive = small, poorly fitted or top-dose-only effect, or effect the other way; inactive = flat fitted curve, though single readings scatter; tested in HEK293 cells; about a fifth of its hits are not listed in these tables; also: % is scaled to controls: 0 for no effect and ±100 for the full control effect; luciferase read-out
# SARS PLP yeast: inhibitors of SARS-CoV papain-like protease in yeast. S. cerevisiae expressing SARS-CoV PLpro, growth rescue; control for the full effect not named in the record. Potency, µM (highest dose often 32.9 µM), without a hit: top-dose activity, positive = growth rescue. 330,000 tested, 0.19% active; active means well fitted rising curve with a large enough effect; inconclusive means small, poorly fitted or top-dose-only effect; inactive means no such curve, though single readings can be large or run the other way; also: 0% is about no effect; nearly all actives have a fitted effect of over 55% in size; growth read by luminescence after 48 h
# RE007 growth inh: less growth of the S. pombe RE007 Vpr strain. S. pombe RE007 Vpr strain, BacTiter-Glo ATP luminescence, 24 h; control for the full effect not named in the record. Potency, µM (series often up to 92.2 µM), for the others: at the top dose activity change, negative = less growth. 360,000 tested, 0.21% active. AID 651644; active = well fitted falling curve with a large enough effect; inconclusive = small, poorly fitted or top-dose-only effect; inactive = no such curve, though single readings can be large or run the other way;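 also: % is scaled to controls: 0 for no effect and ±100 for the full control effect; nearly all actives have a fitted effect of over 50% in size; the assay follows cell death caused by Vpr and the record does not say whether a fall means rescue or toxicity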
#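 Fission yeast RE007 carrying one integrated HIV-1 vpr copy, seeded at OD 0.01 in PMG+AL medium with 23 nL pinned compound. Grown 24 h at 30 degrees; viability read by BacTiter-Glo luminescence after 5 min.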
# StopGo reporter: lowers the luciferase signal of an FMDV 2A StopGo reporter; human cells with a luciferase reporter of 2A StopGo recoding; control for the full effect not named in the record; 410,000 tested, 1.2% active; Potency, µM (titrated, usually from 57.9 µM), inactives show at the top dose signal change, negative = less light; active = well fitted falling curve with a large enough effect; inconclusive = small, poorly fitted or top-dose-only effect; inactive = no such curve, though single readings can be large or run the other way; tested in HEK293T cells; also: % is scaled to controls: 0 for no effect and ±100 for the full control effect; nearly all actives have a fitted effect of over 45% in size; luciferase light after 4 h
# Cruzain inh noDet: cruzain (T. cruzi) inhibition without detergent. purified cruzain, Z-FR-AMC fluorescence, no detergent. Potency, µM, inactives show max response, negative = inhibition, hits mostly inhibitors. AID 1476. 200,000 tested, 2.3% active. P25779;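 also: plate controls were enzyme without inhibitor for no effect and buffer without enzyme for full effect; nearly all actives have a fitted effect of over 40% in size; top concentration of the series not given in the record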
# Target sequence (P25779 123-467 limits assumed): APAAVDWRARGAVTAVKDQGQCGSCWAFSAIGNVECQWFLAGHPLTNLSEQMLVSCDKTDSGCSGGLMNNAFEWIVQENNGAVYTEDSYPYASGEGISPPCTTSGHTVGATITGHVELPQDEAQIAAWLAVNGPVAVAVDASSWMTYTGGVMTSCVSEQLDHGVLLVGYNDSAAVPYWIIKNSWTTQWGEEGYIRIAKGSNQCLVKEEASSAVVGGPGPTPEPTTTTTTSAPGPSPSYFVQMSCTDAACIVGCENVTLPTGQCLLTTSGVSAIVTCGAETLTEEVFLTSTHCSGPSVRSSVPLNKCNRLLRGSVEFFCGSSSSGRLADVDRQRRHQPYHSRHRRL
#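 Purified cruzain at 1.5 nM, pre-incubated 15 min with compound at room temperature in 100 mM sodium acetate pH 5.5, 5 mM DTT, 0.00005% Triton X-100. Reaction started with 2 uM Z-FR-AMC; AMC fluorescence increase over 60 s gives rate.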
# NS1 inh: blocks influenza NS1 protein function; 270,000 tested, 0.4% active; Potency, µM (series often up to 46.1 µM), for inactives: top-dose activity, positive = more growth; S. cerevisiae slowed by influenza A NS1, growth recovery by OD600; AID 2326; active means well fitted rising curve with a large enough effect; inconclusive means small, poorly fitted or top-dose-only effect; inactive means no such curve, though single readings can be large or run the other way; also: nearly all actives have a fitted effect of over 50% in size
#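 Compounds were scored for reversing the slow growth caused by influenza A NS1 in S. cerevisiae, measured by optical density at 600 nm. Assay medium contained 2% galactose at pH 6.0; NS1-free yeast of the same strain were the positive control.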
# Cruzain Triton: cruzain (T. cruzi) inhibition with detergent | P25779 | purified cruzain, Z-FR-AMC fluorescence, 0.01% Triton | Potency, µM, for the others: max response, negative = inhibition, hits mostly inhibitors | 200,000 tested, 0.43% active | AID 1478;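 also: plate controls were neutral wells for no effect and buffer without enzyme for full effect; nearly all actives have a fitted effect of over 40% in size; top concentration of the series not given in the record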
#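 Read-out: AMC fluorescence (360 nm excitation, 450 nm emission), four reads over 2 min, first-to-third difference used. Conditions: cruzain 1.5 nM, Z-FR-AMC 2 uM, pH 5.5 acetate, 5 mM DTT, 0.01% Triton X-100.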
# LASV entry inh: inhibitors of Lassa virus binding or cell entry; Lassa virus pseudotype entry inhibition, cell reporter; control for the full effect not named in the record; Potency, µM (series often up to 37.9 µM), inactives show top-dose activity change, negative = inhibition, hits mostly inhibitors; 300,000 tested, 1.2% active; active means well fitted inhibition curve with a large enough effect; inconclusive means small, poorly fitted or top-dose-only effect, or effect the other way; inactive means flat fitted curve, though single readings scatter; tested in HEK293 cells; also: % is scaled to controls: 0 for no effect and ±100 for the full control effect; nearly all actives have a fitted effect of over 50% in size; luciferase read-out
# An asterisk follows results filed as active; ? = inconclusive; . = no result given; & = joins results of further samples; [ ] = remark or other dose. Unless noted, calls follow the shape of the dose curve; as a rule, active = well fitted curve in the direction sought with a large enough effect; inconclusive = small, poorly fitted or top-dose-only effect, or another doubt; inactive = no such curve, though single readings can be large; an effect the other way counts as inactive or inconclusive. Potency is read from the fitted curve at half-maximal effect.
SMILES,Marburg entry inh,SARS PLP yeast,RE007 growth inh,StopGo reporter,Cruzain inh noDet,NS1 inh,Cruzain Triton,LASV entry inh
Cc1cc(=O)oc2cc(OCC3CC(c4ccc(Cl)cc4)=NO3)ccc12 (stereo not given),-28%,4%,10%,-5%,2%,19%,-4.9%,-21%
O=C(CSc1nnc(COc2cccc3cccnc23)o1)c1ccc(F)cc1,-24%,-2%,-20%,.,-5%,-14%,-2.3%,?
Cc1ccc(CCNC(=O)C2CCN(S(=O)(=O)c3ccc4c(c3)NC(=O)CO4)CC2)cc1,.,13%,-9%,?,.,10%,.,.
CC(C)CNC(=O)C(=O)NCc1ccccn1,-2%[46.1 µM],1%,5%,0%,.,.,.,10%
CC(=O)Nc1ccc(S(=O)(=O)NCCC(=O)OCC(=O)c2ccc(F)c(F)c2)cc1,28%,-6%,-11%,-18%,.,13%,.,-2%
CCOc1ccc(C(=O)NCc2cccnc2)cc1[N+](=O)[O-],5%[46.1 µM],1%,4%,-24%,.,1%,.,?
CCCCc1nc(Cl)c(C#N)c2c1CSC(C)(C)C2,.,-25%,12%,?,0%,-15%,-4.4%,.
COc1cc2c(cc1OC)C(c1cccs1)N(C(=O)c1ccncc1)CC2 (stereo not given),?,2%,22%,2%,.,.,.,?
COC(C[C@@H](O)C[C@H](O)[C@@H](C)OCc1ccccc1)OC,.,0%,10%,-9%,.,-1%,.,.
CCCOC(=O)c1ccc(S(N)(=O)=O)o1,4%,6%,3%,-20%,14%,1%,-1.0%,3%
Cc1ccc(NS(=O)(=O)c2cccc(C(=O)N3CCCCCCC3)c2)cc1,?,-1%,-11%,31%[activator],.,.,.,?
O=C1CC(c2ccccc2)Cc2nc(NC3CC3)ncc21 (stereo not given),-1%[46.1 µM],1%,15%,-1%,.,.,.,-21%[46.1 µM]
CC(=O)Nc1ccc(NC(=O)CSc2nccn2C)cc1,?,.,.,0%,5%,.,-0.2%,-14%[46.1 µM]
CCOC(=O)C1(CCOC)CCN(C2C3CC4CC(C3)CC2C4)CC1 (stereo not given),?,0%,12%,-15%,.,-1%,.,11%
CC(=O)Nc1ccc(SCC(=O)c2c(N)n(Cc3ccccc3)c(=O)n(C)c2=O)cc1,?,-1%,1%,?,.,2%,.,-8%
Cc1cc(/C=C2\C(=O)NC(=O)N(Cc3ccccc3Cl)C2=O)c(C)n1-c1ccc(C(=O)O)cc1,-1%&-1%[46.1 µM],0%,28%,?,.,11%,.,29%
CC1(C)N=c2ccc([N+](=O)[O-])c(N)c2=[N+]1[O-],.,2%,-12%,-20%,.,-56%,.,.
CC(=O)NC1C(OC(=O)Cc2ccccc2)OC(COC(C)=O)C(OC(C)=O)C1OC(C)=O (stereo not given),-3%[14.2 µM],0%,8%,-19%,.,0%,.,-14%
Cc1nc2nc(C)c(NS(=O)(=O)c3cccs3)c(=O)n2[nH]1,26%[46.1 µM],2%,-2%,28%,.,-1%,.,12%[46.1 µM]
CNNC(=S)NCCC1=CCCCC1,.,0%,23%,23%,.,-2%,.,.
CN1CCN(C2Cc3ccc(Cl)cc3Sc3ccc(F)cc32)CC1 (stereo not given),?,.,14%,?,.,.,.,?
Cc1cc(OCC(=O)NCc2ccccn2)c2c(C)cc(=O)oc2c1,.,7%,-3%,-10%,.,5%,.,.
Cc1ccc(C)c(NC(=O)N2CCN(C)c3ncccc32)c1,1%[46.1 µM],.,.,-24%,-5%,.,-11%,-21%[46.1 µM]
COc1ccc(NC(=O)COC(=O)c2ncc(Cl)c(Cl)c2Cl)c(OC)c1,-3%,15%,3%,-8%,-5%,4%,-4.9%,2%
CCCCN(C(=O)c1cccs1)C1CCS(=O)(=O)C1 (stereo not given),-2%,3%,-1%,-13%,.,.,.,-2%
SMILES,Marburg entry inh,SARS PLP yeast,RE007 growth inh,StopGo reporter,Cruzain inh noDet,NS1 inh,Cruzain Triton,LASV entry inh
CCCC(=O)Nc1ccc(Cl)c(NC(=O)C(C)(C)C)c1,1%,.,-19%,10%,10%,-9%,-1.8%,-1%
Cc1csc2nc(COC(=O)c3ccc(NC(=O)c4ccccc4Br)cc3)cc(=O)n12,.,.,.,-3%,-22%,.,-3.8%,?
Cc1coc2c1c(C)cc1oc(=O)c(CC(=O)NCC(=O)O)c(C)c12,1%[46.1 µM],0%,-2%,-8%,.,3%,.,2%
Cc1ccccc1N(C(=O)c1csnn1)C(C(=O)NC1CCCCC1)c1ccncc1 (stereo not given),?,11%,-5%,-10%,.,1%,.,20%
COc1ccccc1Nc1nc(N)nc(CSc2ncccn2)n1,7%,2%,10%,25%,-2%,-1%,2.0%,7%
CCn1c(CC(=O)Nc2ccccc2F)nnc1SCC(=O)Nc1nnc(C)s1,6%[46.1 µM],-1%,1%,5%,.,10%,.,.
CCOc1ccc(N2C(=O)CC(SC(=NC)Nc3ccc4c(c3)OCO4)C2=O)cc1 (stereo not given),?,?,-14%,-8%,5%,5%,-5.5%,14%
Cc1cccc(OCCC(=O)NCC(=O)Nc2cccc(C)c2C)c1,-9%,-10%,4%,-6%,12%,12%,-2.0%,3%
Cc1nc2ccsc2c(=O)n1-c1ccc(Cl)cc1,?,0%,3%,-11%,-7%,13%,-1.3%,21%[46.1 µM]
N#Cc1ccccc1NC(=O)COC(=O)c1ccc(F)cc1F,-9%[46.1 µM],-1%,-3%,-7%,.,-1%,.,-2%
O=C(CSc1nnc(CNC(=O)c2ccccc2)o1)NCc1ccc(F)cc1,19%,23%,-14%,-2%,.,7%,.,-17%
CCOc1ccccc1Oc1coc2cc(OC)ccc2c1=O,3%[46.1 µM],?,39%,7%,-3%,6%,4.3%,24%
CCOC(=O)N1CCN(c2cc(=O)n(-c3ccc(OC)cc3)c(=O)[nH]2)CC1,-3%,0%,8%,-10%,-4%,-6%,1.3%,-4%
CCCCN(CC)S(=O)(=O)c1ccc(C(=O)Nc2nnc(COC)o2)cc1,?,-4%,8%,-17%,?,-17%,0.8%,2%
COc1ccccc1CC(=O)Nc1c[nH]c(=O)[nH]c1=O,?,-1%,5%,-19%,-9%,5%,-1.4%,-6%
N/C(=N\OC(=O)c1ccc([N+](=O)[O-])cc1)c1cccnc1,8%,-10%,-21%,12%,-6%,-8%,-2.1%,11%
CN1CCN(S(=O)(=O)c2ccc(Nc3ccc(F)cc3)nc2)CC1,11%,3%,9%,-13%,.,.,.,13%
Cc1ccnc(NC(=O)c2cc(-n3cnnc3)ccc2Cl)c1,22%,-10%,13%,-15%,0%,11%,2.8%,-8%
CN(C)C(=O)c1ccc(NC(=O)c2ccc(-c3ccc(Cl)cc3)o2)cc1,.,-11%,6%,-3%,.,.,.,2%
COc1ccccc1-c1nc(-c2ccccc2)[nH]c(=O)c1C#N,9%[46.1 µM],-4%,4%,12%,.,.,.,19%[46.1 µM]
OCCN1CCN(C(=S)c2ccc(Br)cc2)CC1,-9%,3%,0%,-6%,-2%,-3%,0.5%,18%
CCC/C(=N\NC(=O)CNC(=O)c1ccc(Cl)cc1)c1ccccc1,?,-2%,8%,5%,.,.,.,-10%
C=CCn1c(-c2ccc3[nH]c(C)c(C)c3c2)n[nH]c1=S,-27%[46.1 µM],-2%,4%,-2%,0%,9%,1.2%,?
COc1cccc(Nc2nc(-c3ccc4c(c3)OCCO4)cs2)c1,?,-9%,0%,-9%,25µM*,7%,-0.8%,?
C[C@]1(O)CCC2C3CC[C@@H]4CC(=O)CC[C@]4(C)C3CC[C@@]21C (stereo not given in full),8%,-3%,5%,-23%,.,.,.,-29%[46.1 µM]
SMILES,Marburg entry inh,SARS PLP yeast,RE007 growth inh,StopGo reporter,Cruzain inh noDet,NS1 inh,Cruzain Triton,LASV entry inh
COc1cc(O)cc(/C=C/c2ccccc2)c1,-17%[46.1 µM],.,8%,18%&-5%,4%,.,-15%,?
CC(=O)c1c(C)[nH]c(C(=O)OCC(=O)N(CC(C)C)C2CCS(=O)(=O)C2)c1C (stereo not given),23%,1%,-8%,-14%,.,.,.,10%
O=C(c1cc2ncccn2n1)N1CCc2c([nH]c3ccccc23)C1c1ccccc1F (stereo not given),?,0%,6%,-2%,.,-4%,.,9%
CCOc1cc(C(=O)OCc2ccc(C(=O)OC)o2)cc(Br)c1OC,?,-5%,6%,-9%,-5%,-10%,-0.8%,10%
Cc1ccc(Sc2c(C)nn(C(=O)CNS(=O)(=O)c3ccc(F)cc3)c2C)cc1,6%,0%,17%,-4%,-8%,2%,-5.8%,-19%
O=S(=O)(NCC(c1ccccc1)N1CCNCC1)c1ccc(Cl)cc1 (stereo not given),?,7%,1%,-12%,2%,10%,0.5%,?
CC(C)NC(=S)NNC(=O)C12CC3CC(CC(C3)C1)C2,-15%,-5%,-10%,47%[activator],2%,4%,8.3%,-2%
COc1ccc(F)cc1S(=O)(=O)N1CCC2(CC1)OCCN2S(=O)(=O)c1cccs1,-15%,-2%,8%,15%,.,.,.,-1%
Cc1cc(C)n(-c2nc3ccccc3c(=O)n2OCc2ccc(F)cc2)n1,6%,-5%,-7%,-25%,3%,-33%,-1.1%,2%
Cc1cc(C)c(/C=C/c2onc(C)c2S(=O)(=O)N2CCC(C(=O)N3CCN(c4ccc(Cl)cc4)CC3)CC2)c(C)c1,.,.,.,-13%,-20%,.,-3.4%,?
CCN(CC)CCCNC(=O)c1ccc(Cn2c(=O)[nH]c3cc(OC)c(OC)cc3c2=O)cc1,?,.,.,-12%,-4%,.,-1.9%,4%[46.1 µM]
Cc1ccc(-n2nc(CO)c(C(=O)NCc3cccs3)n2)cc1,9%[46.1 µM],.,.,7%,-6%,.,2.0%,?
COc1ccc(CCNC(=O)CSc2nccc(=O)[nH]2)cc1OC,0%[46.1 µM],1%,-10%,-16%,.,0%,.,-4%
CC1SCC(=NOCc2c(Cl)cccc2Cl)CS1 (stereo not given),-8%[46.1 µM],2%,0%,36%[activator],.,1%,.,10%[46.1 µM]
CCCNC(=O)Nc1ccccc1C(=O)Nc1ccc(OC)cc1,10%,-1%,7%,-2%,2%,-16%,8.1%,19%
O=C(CN1CCN(S(=O)(=O)N2CCCCC2)CC1)Nc1cc(Cl)cc(Cl)c1,-23%[46.1 µM],-5%,21%,-9%,.,-26%,.,-1%
COC(=O)c1sccc1NC(=O)c1ccc(OC)cc1OC,0%,-21%,1%,-25%,9%,3%,-3.4%,3%

# Rows are unselected, and some 4.7% of all compounds hit somewhere here.
